ugtP null kill: growth inhibition of ugtP-null S. aureus, primary screen, RN4220 ugtP deletion, OD600. growth inhibition, % (concentration not given with the values). 0.54% of 330,000 active. 16 h; some inactives read as strong as hits;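 active = z-score under -3 and OD600 up to 0.15 on both plates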;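 note: plate controls were untreated wells for no effect and antibiotic for full effect; wells of about 80 µL received 100 nL stock; the first replicate is given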
Bead autofluor: flagged as autofluorescent in microsphere protease counterscreen | compound autofluorescence counterscreen, microsphere flow cytometry; active compounds read high | fluorescence intensity (concentration not given with the values) | 3.1% of 360,000 active | AID 624483;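 active = at least 3 SD above the mean of all compounds, about 16000 in these data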;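 note: 100 nL of 1 mM stock went into each well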
RN4220 kill: growth inhibition of S. aureus RN4220, primary screen, OD600; 16 h; inhibition, % (concentration not given with the values); 0.33% of 330,000 active; AID 1259311, 2017;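 active = z-score of -3 or lower and OD600 up to 0.18 on both plates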;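 note: plate controls were untreated cells for no effect and reference antibiotic for full effect; stock transfer was 100 nL into about 80 µL; one replicate is shown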
Mtb hypoxia rep: PubChem AID 1159583 | M. tuberculosis hypoxia-regulated fluorescent reporter, fluorescence | fluorescence inhibition, % (concentration not given with the values) | 0.1% of 300,000 active;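 active = 35 to 45% if threefold the growth effect, above 45% if 1.5-fold the growth effect; inactive = the rest, general growth blockers included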;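 note: wells of about 50 µL received 100 nL stock; 0% = vehicle wells and 100% = reference inhibitor wells; whole bacteria with a GFP reporter of the hypoxia response; strong numbers were not always called active; many hits fall short of the cut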
PrP 5UTR inh: inhibition of PrP 5' UTR reporter expression. cell-based PrP 5' UTR mRNA reporter, plate reader. inhibition, % (concentration not given with the values). 0.35% of 340,000 active. AID 488862, 2010;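 active = every replicate at 50% or more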;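 note: 0 = median of the neutral control wells; tested in H4 reporter cells; numbers are from one replicate; inactives centre near -14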
BJeLR viability: MLPCN primary cell-based screen for lethality selective to Ras in HRASV12 cells | BJeLR (HRASV12) viability, CellTiter-Glo ATP luminescence, 48 h; reference of the scale not given here | inhibition, % (test concentration not listed) | 0.17% of 300,000 active | AID 1554, 2009;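 active = replicate mean above 50%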;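 note: 50 nL library stock added to about 25 µL; numbers are from one replicate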
Mtb hypoxia rep growth: second read-out of Mtb hypoxia rep, no call of its own (marks repeat the call); growth inhibition, %; measured here: M. tuberculosis growth (absorbance);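 0% = vehicle and 100% = reference antibiotic; read after six days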
The depositor's hits bear a star; / = not tested or not shown. Not a hit list; any-hit rate near 4%.

Letter code: A = ugtP null kill; B = Bead autofluor; C = RN4220 kill; D = Mtb hypoxia rep; E = Mtb hypoxia rep growth; F = PrP 5UTR inh; G = BJeLR viability
CC1CCc2nc3ccc(S(=O)(=O)N4CCC(C(=O)NC(C)c5ccccc5)CC4)cc3c(C(=O)O)c2C1 (stereo unspecified)
  A: 2.6; B: 5741; C: 3.8; D: 4.9; E: 3.8; F: -8.2; G: 6.2

CN(C)C(=S)SCC(=O)Nc1cccc(C(F)(F)F)c1
  A: 9.1; B: 2288; C: 7.1; D: 16.6; E: 5.2; F: -9.5; G: -6.8

Cc1c(Cl)c(C(F)(F)F)nn1CC(=O)NCc1ccccc1
  A: -2.8; B: 5809; C: -2.8; D: -0.9; E: 5.5; F: -4.7; G: 2.2

O=c1cc(N2CCC3(CC2)OCCO3)[nH]c(=O)n1-c1ccc(Br)cc1
  A: 5.1; B: 8444; C: 3.9; D: 10.6; E: 3.8; F: -14.7; G: -4.0

O=C(Cn1c(=O)oc2ccccc21)N1CCCC1
  A: 3.2; B: 3116; C: 0.8; D: 7.3; E: 8.0; F: -4.5; G: -6.5

O=C(CSc1ccccn1)Nc1ccc(N2CCOCC2)cc1
  A: -2.5; B: 4633; C: 6.0; D: 9.9; E: 8.5; F: -9.8; G: 1.2

O=C1NC(=O)/C(=C\c2ccc(Cl)cc2Cl)N1
  A: -1.8; B: 3904; C: 4.0; D: 9.0; E: 8.0; F: -0.4; G: /

Oc1ccc(C=NCCc2ccccc2)cc1
  A: 3.6; B: 3227; C: 1.0; D: 4.2; E: 3.2; F: -10.7; G: 4.8

COC(=O)c1ccccc1NC(=O)Cn1cc(Br)cn1
  A: -10.8; B: /; C: -6.1; D: 11.0; E: 8.5; F: -9.2; G: 1.5

C=CCN(CC=C)C(=O)CCN1CC1C (stereo unspecified)
  A: -4.2; B: 4205; C: 2.5; D: 2.6; E: 6.1; F: -7.5; G: /

Additional records
Letter code: A = ugtP null kill; B = Bead autofluor; C = RN4220 kill; D = Mtb hypoxia rep; E = Mtb hypoxia rep growth; F = PrP 5UTR inh; G = BJeLR viability
C=CCn1c(=C(C#N)C(=O)NCC2CCCO2)sc(=Cc2ccccn2)c1=O (stereo unspecified)
  A: -4.4; B: /; C: 2.0; D: -3.3; E: 6.8; F: /; G: /

COc1ccc(C2C3=C(CCCC3=O)N(CC(=O)O)C3=C2C(=O)CCC3)cc1
  A: 7.9; B: 4037; C: 3.1; D: -3.4; E: -1.5; F: -17.5; G: 1.4

COc1ccc(N2C(=O)CC(NNc3ncc(Cl)cc3Cl)C2=O)cc1 (stereo unspecified)
  A: 22.0; B: 4238; C: 7.0; D: 9.7; E: 12.0; F: -99.3; G: -6.2

C=CC(=O)NCC1OCCc2ccccc21 (stereo unspecified)
  A: -1.9; B: 5384; C: 2.7; D: 2.7; E: 12.3; F: -7.1; G: 10.1

CC1CCN(C(=O)COC(=O)c2cc(Cl)c3c(c2)OCO3)CC1
  A: 1.3; B: 3890; C: 3.8; D: -1.2; E: 6.1; F: -63.4; G: /

COc1ccc(OCC(=O)N2CCN(C(=O)c3ccc([N+](=O)[O-])cc3)CC2)cc1
  A: 1.2; B: 2219; C: 1.1; D: -2.6; E: 0.0; F: -26.2; G: -4.2

Cc1cccc(CC(=O)NCCn2c(C)cc3ccccc32)c1
  A: -4.7; B: 1493; C: -5.8; D: 10.2; E: 0.5; F: -27.9; G: 11.8

CCCCCC(=O)Nc1nc(C)c(-c2csc(Nc3ccccc3OCC)n2)s1
  A: -28.7; B: 4196; C: 3.1; D: -0.1; E: 6.3; F: -12.4; G: 8.0

CN1C(=O)/C(=C/c2ccccc2OCc2ccccc2)NC1=S
  A: 5.5; B: 2391; C: 2.3; D: 3.9; E: 1.3; F: -12.0; G: -11.2

CCC(Oc1ccccc1)C(=O)Nc1ccccc1N1CCCCC1 (stereo unspecified)
  A: 12.3; B: 6584; C: -7.8; D: 6.7; E: 7.3; F: -24.6; G: -8.5

New compounds follow:
Letter code: A = ugtP null kill; B = Bead autofluor; C = RN4220 kill; D = Mtb hypoxia rep; E = Mtb hypoxia rep growth; F = PrP 5UTR inh; G = BJeLR viability
CCC(=O)Nc1ccc(Cl)c(NC(=O)c2c(OC)cccc2OC)c1
  A: -4.5; B: 4447; C: -4.5; D: -2.8; E: -1.5; F: -11.2; G: 6.8

O=C(CN(Cc1ccco1)C(=O)CCC(=O)Nc1nccs1)NCc1ccccc1
  A: 2.2; B: 2108; C: 5.0; D: /; E: /; F: -0.5; G: 0.3

Cc1ccc(NC(=O)COc2ccc(C=NNC(=O)c3cccnc3)cc2)cc1C
  A: 10.1; B: /; C: 3.4; D: 2.1; E: -8.5; F: /; G: /

Cc1ccc(NC(=O)COC(=O)CC2CCCC2)cc1Cl
  A: 9.0; B: 4516; C: -1.7; D: -3.8; E: 2.9; F: 5.4; G: -8.9

CCOc1ccc(CCNC(=O)c2cc(-c3ccccc3)c(N3CCOCC3)s2)cc1OCC
  A: -3.1; B: 5156; C: 0.7; D: -3.7; E: -3.1; F: -27.9; G: -3.8

O=C(CON=Cc1ccc2c(c1)OCO2)Nc1cccc(Br)c1
  A: -3.2; B: /; C: 1.7; D: 3.9; E: 14.3; F: /; G: /

COc1cc(/C=C2\SC(=S)N(C(C(=O)O)c3ccccc3)C2=O)ccc1O (stereo unspecified)
  A: 4.8; B: 4392; C: 12.8; D: 10.9; E: 2.1; F: -11.1; G: -5.8

CC(=O)N1CCOc2ccc(S(=O)(=O)NC(C)c3ccccc3)cc21 (stereo unspecified)
  A: 8.9; B: 4195; C: 5.0; D: -0.7; E: -9.7; F: -16.3; G: 6.3

COc1cccc(/C=N/NC(=O)CNC(=O)c2ccc3c(c2)OCCO3)c1O
  A: /; B: 2117; C: /; D: /; E: /; F: -23.7; G: 7.3

CC(=O)N(Cc1ccco1)Cc1cc2cccc(C)c2n2nnnc12
  A: 0.1; B: /; C: 5.9; D: 4.5; E: 5.5; F: /; G: 5.3

COc1ccc(C(=O)Nc2ccc(OCC(F)(F)C(F)F)c(C(F)(F)F)c2)cc1OC
  A: -23.6; B: 4543; C: -7.2; D: 0.0; E: 11.8; F: -5.6; G: -6.1

O=[N+]([O-])c1ccc(NN=Cc2cccc(O)c2)nc1
  A: -13.8; B: 4738; C: 6.1; D: 16.5; E: 9.4; F: -141.0; G: /

Ordered by count of non-hydrogen atoms (rising): some entries from above
Letter code: A = ugtP null kill; B = Bead autofluor; C = RN4220 kill; D = Mtb hypoxia rep; E = Mtb hypoxia rep growth; F = PrP 5UTR inh; G = BJeLR viability
Cc1ccc(NC(=O)COC(=O)CC2CCCC2)cc1Cl
  A: 9.0; B: 4516; C: -1.7; D: -3.8; E: 2.9; F: 5.4; G: -8.9

CC(=O)N(Cc1ccco1)Cc1cc2cccc(C)c2n2nnnc12
  A: 0.1; B: /; C: 5.9; D: 4.5; E: 5.5; F: /; G: 5.3

Cc1ccc(NC(=O)COc2ccc(C=NNC(=O)c3cccnc3)cc2)cc1C
  A: 10.1; B: /; C: 3.4; D: 2.1; E: -8.5; F: /; G: /

Compound profiles, from the list above. Order of values: ugtP null kill	Bead autofluor	RN4220 kill	Mtb hypoxia rep	Mtb hypoxia rep growth	PrP 5UTR inh	BJeLR viability
C=CCN(CC=C)C(=O)CCN1CC1C (stereo unspecified) is entered as -4.2	4205	2.5	2.6	6.1	-7.5	/
CCC(Oc1ccccc1)C(=O)Nc1ccccc1N1CCCCC1 (stereo unspecified) is entered as 12.3	6584	-7.8	6.7	7.3	-24.6	-8.5
Cc1cccc(CC(=O)NCCn2c(C)cc3ccccc32)c1 is entered as -4.7	1493	-5.8	10.2	0.5	-27.9	11.8
O=c1cc(N2CCC3(CC2)OCCO3)[nH]c(=O)n1-c1ccc(Br)cc1 is entered as 5.1	8444	3.9	10.6	3.8	-14.7	-4.0
Cc1ccc(NC(=O)COC(=O)CC2CCCC2)cc1Cl is entered as 9.0	4516	-1.7	-3.8	2.9	5.4	-8.9

Two of the compounds above, with bars between the fields:
molecule | ugtP null kill | Bead autofluor | RN4220 kill | Mtb hypoxia rep | Mtb hypoxia rep growth | PrP 5UTR inh | BJeLR viability
Cc1ccc(NC(=O)COC(=O)CC2CCCC2)cc1Cl | 9.0 | 4516 | -1.7 | -3.8 | 2.9 | 5.4 | -8.9
CCOc1ccc(CCNC(=O)c2cc(-c3ccccc3)c(N3CCOCC3)s2)cc1OCC | -3.1 | 5156 | 0.7 | -3.7 | -3.1 | -27.9 | -3.8

Assay outcomes from PubChem.
